LASV entry inh = Lassa virus entry inhibition; Lassa virus pseudotype entry inhibition, cell reporter; control for the full effect not named in the record; Potency, µM (titrated, usually from 37.9 µM), inactives show top-dose activity change, negative = inhibition, actives largely listed as inhibitors; 1.2% of 300,000 active; AID 540256; active means well fitted inhibition curve with a large enough effect; inconclusive means small, poorly fitted or top-dose-only effect, or effect the other way; inactive means flat fitted curve, though single readings scatter; tested in HEK293 cells; note: % is set by controls: 0 for no effect and ±100 for the full control effect; nearly all actives have a fitted effect of over 50% in size; luciferase read-out
MARV entry inh = Marburg virus entry inhibition | 1.8% of 300,000 active | Potency, µM (doses to about 37.8 µM), for the others: at the top dose activity change, negative = inhibition, most hits filed as inhibitors | Marburg virus pseudotyped entry inhibition, cell reporter; control for the full effect not named in the record; about a third of the inactives were read at about 46 µM; active = well fitted inhibition curve with a large enough effect; inconclusive = small, poorly fitted or top-dose-only effect, or effect the other way; inactive = flat fitted curve, though single readings scatter; tested in HEK293 cells; about a fifth of its hits are not listed in these tables; note: % is set by controls: 0 for no effect and ±100 for the full control effect; luciferase read-out
RE007 growth inh = less growth of the S. pombe RE007 Vpr strain | S. pombe RE007 Vpr strain, BacTiter-Glo ATP luminescence, 24 h; control for the full effect not named in the record | Potency, µM (highest dose often 92.2 µM), inactives show at the top dose activity change, negative = less growth | 0.21% of 360,000 active; active = well fitted falling curve with a large enough effect; inconclusive = small, poorly fitted or top-dose-only effect; inactive = no such curve, though single readings can be large or run the other way;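 note: % is set by controls: 0 for no effect and ±100 for the full control effect; nearly all actives have a fitted effect of over 50% in size; the assay follows cell death caused by Vpr and the record does not say whether a fall means rescue or toxicity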
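Fission yeast RE007 carrying one integrated HIV-1 vpr copy, seeded at OD 0.01 in PMG+AL medium with 23 nL pinned compound. Grown 24 h at 30 degrees; viability read by BacTiter-Glo luminescence after 5 min.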
Cruzain Triton = blocks cruzain activity in presence of Triton detergent; AID 1478; Potency, µM, inactives show max response, negative = inhibition, usual class: inhibitors; 0.43% of 200,000 active; P25779; purified cruzain, Z-FR-AMC fluorescence, 0.01% Triton;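 note: plate controls were neutral wells for no effect and buffer without enzyme for full effect; nearly all actives have a fitted effect of over 40% in size; top concentration of the series not given in the record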
Target sequence (P25779 123-467 limits assumed): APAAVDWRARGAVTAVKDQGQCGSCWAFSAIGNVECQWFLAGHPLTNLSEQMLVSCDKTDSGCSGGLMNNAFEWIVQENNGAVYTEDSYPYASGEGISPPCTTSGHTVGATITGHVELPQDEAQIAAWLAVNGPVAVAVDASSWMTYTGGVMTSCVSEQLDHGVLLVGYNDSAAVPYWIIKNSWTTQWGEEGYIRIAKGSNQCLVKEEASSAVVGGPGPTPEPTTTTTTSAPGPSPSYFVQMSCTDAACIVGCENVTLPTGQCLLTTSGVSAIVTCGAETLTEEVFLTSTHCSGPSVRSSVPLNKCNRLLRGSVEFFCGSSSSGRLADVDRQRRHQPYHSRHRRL
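Purified cruzain (1.5 nM final) was preincubated with compounds for 15 min at room temperature in 100 mM sodium acetate pH 5.5, 5 mM DTT, 0.01% Triton X-100. Reaction started with 2 uM Z-FR-AMC; AMC fluorescence change over 60 s gave activity.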
NS1 inh = inhibitors of influenza NS1 protein function. Potency, µM (top dose mostly 46.1 µM), for inactives: top-dose activity, positive = more growth. 0.4% of 270,000 active. S. cerevisiae slowed by influenza A NS1, growth recovery by OD600; active means well fitted rising curve with a large enough effect; inconclusive means small, poorly fitted or top-dose-only effect; inactive means no such curve, though single readings can be large or run the other way; note: nearly all actives have a fitted effect of over 50% in size
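Recovery from NS1-induced slow growth read by OD600 in budding yeast switched to galactose assay medium (pH 6.0, -URA) at 1:100 dilution. Compound 23 nl per well; the matching strain lacking NS1 serves as control.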
Cruzain noTriton = blocks cruzain activity in detergent-free assay; purified cruzain, Z-FR-AMC fluorescence, no detergent; Potency, µM, inactives show max response, negative = inhibition, usual class: inhibitors; 2.3% of 200,000 active; AID 1476;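 note: plate controls were enzyme without inhibitor for no effect and buffer without enzyme for full effect; nearly all actives have a fitted effect of over 40% in size; top concentration of the series not given in the record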
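Purified cruzain at 1.5 nM, pre-incubated 15 min with compound at room temperature in 100 mM sodium acetate pH 5.5, 5 mM DTT, 0.00005% Triton X-100. Reaction started with 2 uM Z-FR-AMC; AMC fluorescence increase over 60 s gives rate.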
2A StopGo = FMDV 2A StopGo reporter, luciferase signal; human cells with a luciferase reporter of 2A StopGo recoding; control for the full effect not named in the record; Potency, µM (top dose mostly 57.9 µM), for inactives: at the top dose signal change, negative = less light; 1.2% of 410,000 active; AID 1159524; active = well fitted falling curve with a large enough effect; inconclusive = small, poorly fitted or top-dose-only effect; inactive = no such curve, though single readings can be large or run the other way; tested in HEK293T cells; note: % is set by controls: 0 for no effect and ±100 for the full control effect; nearly all actives have a fitted effect of over 45% in size; luciferase light after 4 h
SARS PLP yeast = inhibitors of SARS-CoV papain-like protease in yeast; Potency, µM (doses to about 32.9 µM), without a hit: top-dose activity, positive = growth rescue; S. cerevisiae expressing SARS-CoV PLpro, growth rescue; control for the full effect not named in the record; 0.19% of 330,000 active; active means well fitted rising curve with a large enough effect; inconclusive means small, poorly fitted or top-dose-only effect; inactive means no such curve, though single readings can be large or run the other way; note: 0% is about no effect; nearly all actives have a fitted effect of over 55% in size; growth read by luminescence after 48 h
* = called active by the depositor; u = inconclusive; x = not tested or not shown; & = joins results of further samples; [ ] = dose if it differs, or a comment. Unless noted, calls come from the whole dose curve; as a rule, active = well fitted curve in the direction sought with a large enough effect; inconclusive = small, poorly fitted or top-dose-only effect, or another doubt; inactive = no such curve, though single readings can be large; an effect the other way counts as inactive or inconclusive. Potency is the fitted concentration of half-maximal effect.

SMILES	LASV entry inh	MARV entry inh	RE007 growth inh	Cruzain Triton	NS1 inh	Cruzain noTriton	2A StopGo	SARS PLP yeast
CC(C)C(NS(=O)(=O)c1cccs1)C(=O)NCCN1CCN(c2ccccc2)CC1 (stereo not given)	9.3%	-2.9%	4.3%	20µM*	2.0%	25.1µM*	u	7.3%
COc1ccc2cc(CN(CCc3ccccc3)Cc3nnnn3Cc3ccco3)c(=O)[nH]c2c1	-22.8%	-23.0%&-23.0%	28.7%	-12.1%	-45.3%	14.2%	-26.5%	-1.0%
O=C1C(Cl)=C(N2CCCCC2)C(=O)N1c1ccccc1	0.0%	0.7%	u	-15.6%	u	2.7%	15.2%	3.2%
CC(C)(C)OC(=O)NCCCC[C@H](NC(=O)c1[nH]cnc1C(=O)Nc1ccc(Cl)cc1)C(=O)OC(C)(C)C	x	x	6.4%	x	17.4%	x	-29.3%	-0.4%
COc1cccc(-c2nn(C)c3sc(C(=O)NCc4ccccn4)cc23)c1	-20.9%	u	-3.7%	-10.1%	-20.9%	u	-9.8%	-7.0%
Cc1ccsc1/C=C1/SC(=O)N(CC(=O)N2CCOCC2)C1=O	24.1%	u	-14.2%	-8.9%	-14.0%	-2.6%	13.1%	-1.7%
Cc1ccc(NC(=O)/C(=C\c2ccc3c(c2)OCO3)NC(=O)c2ccco2)cc1	24.8%	-16.7%	3.9%	-3.4%	5.4%	-1.5%	26.5%	3.4%
Cc1ccc(CS(=O)(=O)CC(C)(O)c2ccccc2)cc1 (stereo not given)	18.9%[46.1 µM]	-3.3%[46.1 µM]	6.2%	x	3.3%	x	18.2%	-1.3%
CC(Oc1ccccc1)C(=O)OCC(=O)N1CC(=O)Nc2ccccc21 (stereo not given)	-0.9%	u	4.3%	x	x	x	5.9%	2.4%
CCOc1ccc(CN2CCN(Cc3cccn3-c3cccnc3)CC2CCO)cc1 (stereo not given)	x	x	-2.0%	x	-0.8%	x	-4.1%	0.7%
O=C(Nc1cc(C(F)(F)F)ccc1Cl)c1ccc(NC(=O)C(F)(F)F)cc1	5.0%	12.0%	55.5%	-3.8%	-6.9%	9.0%	-28.0%	8.1%
O=C1CSC(=S)N1c1ccc(O)cc1	x	x	-7.1%	x	-125.2%	x	-15.1%	-16.8%
Cc1ccc(Cn2c(CO)cnc2SCc2ccc(F)cc2)cc1	5.3%[46.1 µM]	x	x	-5.7%	x	4.7%	5.7%	x
COc1ccc(C(=O)Nc2cc(C(=O)c3ccccc3)c(C)oc2=O)cc1	8.4%	7.6%	11.2µM*	12.6µM*	-222.3%	15.8µM*	u	-33.1%
O=C(Nc1ccc(Br)cc1F)c1ccc2nc(CCc3ccccc3)oc2c1	-7.5%[46.1 µM]	x	x	-1.0%	x	10.4%	11.0%	x
O=C(O)c1cc(S(=O)(=O)NCCOc2ccccc2)ccc1Cl	2.2%	-22.5%	10.4%	x	x	x	-15.2%	2.8%
COC(=O)c1ccccc1NC(=O)N1CCN(S(=O)(=O)c2ccc(Cl)cc2)CC1	15.8%	3.7%	7.8%	-4.2%	-34.8%	6.7%	u	4.0%
COc1ccc(CNc2nc3c(c(=O)n(Cc4ccc(F)cc4)c(=O)n3C)n2C)cc1	0.9%	-27.6%	1.6%	-3.3%	-107.0%	22.7%	u	3.0%
CSc1nc(Oc2ccc3ccccc3c2)c2ccccc2n1	-25.0%	u	0.8%	0.3%	22.4%	u	u	-5.6%
NS(=O)(=O)c1ccc(CCNC(=O)c2nc(CS(=O)(=O)c3ccc(Cl)cc3)no2)cc1	x	x	2.1%	x	3.9%	x	-25.5%	-1.6%
O=c1cc(CN2CCN(c3ccccc3F)CC2)c2cc3c(cc2o1)CCCC3	-20.6%	-7.2%	-4.3%	-2.4%	6.9%	u	22.7%	-6.1%
C/C(=C\c1cccc(Br)c1)C(=O)c1c(C)cc(C)[nH]c1=O	x	x	4.9%	x	-2.1%	x	-23.5%	-2.1%
Cc1ccc(NCc2nnc(SCC(=O)Nc3cc(C)on3)n2C)cc1	-9.1%	14.6%[46.1 µM]	2.1%	0.8%	-5.9%	11.7%	-4.7%	28.4%
CC(=O)c1cccc(OCc2cc(C(=O)N(C)CCC3CCOCC3)no2)c1	x	x	9.6%	x	u	x	22.7%	4.1%
CC(=O)c1ccc(N(C(=O)CNC(=O)c2cccs2)C(C(=O)NCC2CCCO2)c2ccccc2)cc1 (stereo not given)	u	-16.0%[46.1 µM]	2.8%	x	-30.5%	x	16.1%	2.2%
(next part)
SMILES	LASV entry inh	MARV entry inh	RE007 growth inh	Cruzain Triton	NS1 inh	Cruzain noTriton	2A StopGo	SARS PLP yeast
COc1ccc(NC(=O)CN2C(=O)c3ccccc3S2(=O)=O)cc1OC	28.3%	13.9%[46.1 µM]	8.5%	x	14.5%	x	-20.2%	0.8%
COC(=O)c1cc(S(=O)(=O)NCc2ccccc2)c[nH]1	x	x	1.5%	x	-3.7%	x	15.3%	-0.8%
CC1CCc2cc(F)ccc2N1C(=O)C1(C)CC1(Cl)Cl (stereo not given)	8.2%	u	-8.9%	-5.3%	-14.5%	12.9%	-8.1%	-4.6%
CCOC(=O)C(CCc1ccccn1)c1ccccc1 (stereo not given)	-3.2%	4.1%	-1.3%	x	x	x	-5.1%	x
CC(C)C(=O)Nc1ccc2c(c1)C(=O)NC2=O	3.5%	u	-7.1%	x	x	x	-14.6%	0.1%
Cc1cc(C)cc(NS(=O)(=O)c2ccc3[nH]cc(C(=O)NCCc4ccccc4)c(=O)c3c2)c1	3.5%[46.1 µM]	-3.3%[46.1 µM]	x	-1.6%	x	u	-4.0%	x
CCOC(=O)C1CCN(C(=O)COc2ccc3c(C)cc(=O)oc3c2)CC1	7.3%	-3.4%[46.1 µM]	-16.4%	x	x	x	-16.7%	2.1%
CCCC(CCC)C(=O)Nc1cc(-c2cn3cccnc3n2)ccc1OC	17.1%[46.1 µM]	x	x	-0.8%	x	-6.9%	4.2%	x
COc1ccc(N2CCN(C(CNC(=O)C(C)C)c3ccc4c(c3)OCO4)CC2)cc1 (stereo not given)	x	x	0.0%	x	-12.1%	x	-5.0%	3.7%
Cc1ccc(NC(=O)CN2C(=O)CN=C(c3ccccc3)c3ccccc32)c(C)c1	-5.4%[46.1 µM]	-24.5%[46.1 µM]	x	-2.1%	x	-10.7%	-5.9%	x
COc1ccc(Nc2nc(NCc3ccco3)nc(N/N=C/c3ccccc3F)n2)cc1	-9.2%	u	-10.4%	-2.6%	18.8%	u	-22.4%	-23.3%
COc1ccc(C(=O)COC(=O)CCN2C(=O)C3C4CCC(C4)C3C2=O)cc1 (stereo not given)	0.0%	19.4%[46.1 µM]	2.3%	x	x	x	-14.1%	-0.6%
CCNc1nc(Oc2ccc(OCC(=O)OC)nn2)nc(N2CCOCC2)n1	-0.2%[46.1 µM]	11.6%[46.1 µM]	x	-1.2%	x	9.4%	16.8%	x
COc1ccc(-c2cnc3n2CCCCC3)cc1	7.1%	-2.6%	-3.8%	x	-1.0%	x	-18.1%	2.5%
CCOC(=O)CC(=O)CSc1nc2ccccc2c(=O)n1CCc1ccccc1	-18.2%[46.1 µM]	x	x	-6.7%	x	-5.4%	2.0%	x
CCOC(=O)N1CCN(C(=O)c2ccc(OCC)cc2)CC1	-26.0%	20.6%[46.1 µM]	22.0%	x	0.8%	x	12.1%	0.2%
CC(=O)c1ccc(S(=O)(=O)N(C)CC(=O)NCc2ccco2)cc1	-0.6%	u	-15.2%	x	x	x	20.4%	-3.9%
O=C(CNC(=S)N(CCCN1CCOCC1)Cc1cccs1)NC1CC1	-0.9%	-4.8%	16.1%	1.1%	18.2%	3.9%	-3.7%	-6.1%
Cc1ccc2c(c1)N(C(=O)CCC(=O)N1CCC(C(N)=O)CC1)CC(C)O2 (stereo not given)	x	x	5.3%	x	12.7%	x	0.0%	-1.1%
Cc1cc2nnc(SCC(=O)N3CCCCC3)n2c(N)n1	x	x	1.1%	x	-2.5%	x	-5.7%	-0.7%
O=S(=O)(CCNCc1cccs1)c1ccc(Cl)cc1	-0.2%[46.1 µM]	10.7%[46.1 µM]	-13.4%	x	0.9%	x	-5.8%	0.8%
Cc1ccc(-c2cnc(-c3ccncc3)o2)cc1	-17.2%	-0.2%	-22.9%	-24.0%	-49.3%	u	22.4%	-9.5%
CC(C)(C)C(=O)OC/C(N)=N/OC(=O)c1ccc(Cl)cc1	-6.5%	1.3%[46.1 µM]	-8.6%	x	-53.6%	x	4.8%	-7.1%
Cc1cccc(NC(=O)Cn2c(=O)oc3cc(S(=O)(=O)NC4CCCC4)ccc32)c1	x	0.0%[46.1 µM]	x	-3.8%	x	-0.2%	39.3%[activator]	x
COc1cccc(Oc2c(C)oc3cc(OC(=O)N(C)C)ccc3c2=O)c1	-8.7%	6.6%	1.4%	-1.3%	-13.7%	5.3%	-12.7%	-1.8%
Other compounds:
SMILES	LASV entry inh	MARV entry inh	RE007 growth inh	Cruzain Triton	NS1 inh	Cruzain noTriton	2A StopGo	SARS PLP yeast
CC(=O)NC1C(Oc2ccc3c(C)cc(=O)oc3c2)OC(COC(C)=O)C(OC(C)=O)C1OC(C)=O (stereo not given)	14.5%[46.1 µM]	u	10.2%	x	x	x	8.2%	1.3%
COc1cc2cc(C(=O)N[C@@H](Cc3ccccc3)C(=O)O)n(C)c2c(OC)c1OC	x	x	3.6%	x	2.0%	x	u	-0.9%
COc1ccc(/C=C(/NC(=O)c2ccccc2)C(=O)NC(Cc2c[nH]c3ccccc23)C(=O)O)cc1 (stereo not given)	5.6%[46.1 µM]	-8.1%[46.1 µM]	-2.7%	x	20.5%	x	-10.2%	1.8%
c1ccc(-n2nnnc2-c2cnc(-c3ccncc3)nc2-c2cccs2)cc1	-4.7%	-29.0%	-0.8%	-3.1%	-33.6%	5.0%	-16.5%	-48.0%
Cc1cc(Cl)c(OCCOCCN2CCCCC2)c(Br)c1	-26.7%	u	-0.9%	2.9%	6.7%	-7.7%	-14.6%	-10.0%
COc1ccc(/C=C/C(=O)OCC(=O)c2c(N)n(C)c(=O)n(C)c2=O)c(OC)c1	u	12.2%[46.1 µM]	-13.6%	x	7.9%	x	2.7%	0.3%
CC(C)S(=O)(=O)N1CCN(c2ccnc3cc(Cl)ccc23)CC1	5.8%	u	-5.1%	x	-3.1%	x	-23.0%	-1.1%
CCc1ccc(C=NC23CN4CN(CN(C4)C2)C3)s1	3.0%	2.4%	-6.6%	6.3%	-6.6%	-5.3%	15.5%	1.9%
